D2 agonist: human D2 receptor agonism in beta-arrestin assay; P14416; DiscoveRx PathHunter D2 beta-arrestin, luminescence, 90 min; 100% = 57 uM dopamine signal; activation, % (test concentration not listed); hit rate 0.084% among 360,000; in the data active = activation above about 40%; inconclusive = about 15% to 40%; inactive = below about 15%; also: compound concentration not given in the record; the text of the record calls up to 30% inactive
Target sequence (P14416 whole entry, looked up): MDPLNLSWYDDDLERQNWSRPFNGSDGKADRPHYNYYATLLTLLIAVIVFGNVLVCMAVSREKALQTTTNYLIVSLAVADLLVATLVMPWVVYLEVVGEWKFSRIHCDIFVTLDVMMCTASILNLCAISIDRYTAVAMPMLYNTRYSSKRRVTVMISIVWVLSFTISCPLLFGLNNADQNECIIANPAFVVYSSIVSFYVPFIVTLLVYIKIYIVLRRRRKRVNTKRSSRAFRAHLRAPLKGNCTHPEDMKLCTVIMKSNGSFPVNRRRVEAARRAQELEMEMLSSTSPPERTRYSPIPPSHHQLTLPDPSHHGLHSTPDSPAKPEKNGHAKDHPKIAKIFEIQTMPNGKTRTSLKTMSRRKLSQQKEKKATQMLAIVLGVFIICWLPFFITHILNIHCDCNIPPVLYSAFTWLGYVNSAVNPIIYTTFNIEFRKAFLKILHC
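Agonist mode: compounds alone added to overnight-plated D2 PathHunter cells for 90 min at 37 C, with 57 uM final dopamine (EC100) defining full response. Beta-arrestin recruitment detected by chemiluminescent reagent, read after 1 h at ambient temperature.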
Menin MLL FP FL: menin-MLL binding inhibition, fluorescein peptide. Fluorescence polarization, fluorescein-MLL peptide displacement from menin. FP activity change, % at 61.4 µM. 290,000 tested, under 10 active. AID 1766; inconclusive = falling polarisation curve, or a change in total fluorescence; inactive = total fluorescence flat and polarisation flat or rising; no compound was filed as active; the % refers to the polarisation; negative = inhibition;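 also: % of control where 0% means no effect; inhibitors lower the polarisation; unlabelled MLL peptide was the positive control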
Sfp PPTase inh: Sfp phosphopantetheinyl transferase inhibition; Biochemical Sfp PPTase activity, qHTS; Potency, µM, for the others: max response, negative = inhibition, actives largely listed as inhibitors; hit rate 3.5% among 310,000; AID 1490; active = well fitted inhibition curve with a large enough effect; inconclusive = small, poorly fitted or top-dose-only effect, or another doubt; inactive = no such curve, though single readings can be large or run the other way;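 also: the enzyme is Sfp with the accession as filed and its product quenches rhodamine fluorescence; potency is read from the fitted curve at half-maximal effect; 0% = enzyme reaction without inhibitor and -100% = no enzyme wells; top concentration of the series not given in the record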
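Compounds were incubated with enzyme (final 15 nM) for 15 min at room temperature before substrate addition started the reaction. Fluorescence at 525 nm excitation, 598 nm emission was recorded immediately and after 30 minutes.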
PINK1 modulator: PINK1 expression modulation; PINK1 immunofluorescence, high-content cytometry, 24 h; Potency, µM (titrated, usually from 76.6 µM), for the others: at the top dose activation (PINK1 increase), usual class: activators; hit rate 0.2% among 410,000; active = well fitted activation curve with a large enough effect; inconclusive = small, poorly fitted or top-dose-only effect; inactive = flat fitted curve, though single readings scatter; cell line not stated here;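 also: potency is read from the fitted curve at half-maximal effect; % of control where 0% means no effect; nearly all actives have a fitted effect of over 65% in size; a mitochondrial uncoupler was the plate control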
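Measures PINK1 amount and localization on or inside mitochondria by immunofluorescence. Stable cells get compounds at 5 concentrations for 24 hours before fixation and staining; CCCP controls included.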
gsp antagonist: gsp mutant antagonism. gsp-mutant cells, cAMP HTRF, 30 min; control for the full effect not named in the record. hit rate 0.4% among 340,000. Potency, µM (series often up to 76.9 µM), for the others: at the highest dose activity change, negative = inhibition, usual class: inhibitors; active = falling curve of any shape with a large fitted effect; inconclusive = falling curve, mostly with a smaller effect; inactive = flat or rising curve; cell line not stated here;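 also: intracellular cAMP measured with PDE inhibitor Ro 20-1724 present during compound exposure; potency is read from the fitted curve at half-maximal effect; % is scaled to controls: 0 for no effect and ±100 for the full control effect; nearly all actives have a fitted effect of over 65% in size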
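Cells, 2000/well, grown 16–24 h in DMEM 10% FBS with 0.5 mg/ml G418, then compounds plus […] (300 uM addition stock), 30 min at 37C. cAMP read by HTRF (cAMP-d2 and anti-cAMP antibody-K in lysis buffer) after 30 min RT.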
gsp ag: gsp mutant agonism. AID 624287. hit rate 0.13% among 340,000. Potency, µM (top dose mostly 76.9 µM), for inactives: at the top dose activation (cAMP increase), most hits filed as activators. gsp mutant cells, cAMP HTRF, 30 min; control for the full effect not named in the record; active = well fitted activation curve with a large enough effect; inconclusive = small, poorly fitted or top-dose-only effect, or another doubt; inactive = no such curve, though single readings can be large or run the other way; cell line not stated here;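 also: phosphodiesterase inhibitor Ro 20-1724 added with compounds to block cAMP breakdown; potency is read from the fitted curve at half-maximal effect; nearly all actives have a fitted effect of over 60% in size; about a fifth of the inactives were tested at one dose only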
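Cells in DMEM/10% FBS with G418 were pretreated with compounds in DMSO plus […] (300 uM stock) for 30 min at 37C. cAMP was measured by HTRF (cAMP-d2 plus anti-cAMP antibody-K) after 30 min at room temperature.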
ClpP mod: qHTS Assay for Activators of ClpP | Potency, µM (series often up to 57.5 µM), inactives show top-dose activity change, negative = active | purified B. subtilis ClpP, FRET peptide cleavage, 20 min | hit rate 1.9% among 340,000 | ATP-dependent Clp protease proteolytic subunit (Bacillus subtilis (strain 168)), P80244; active = well fitted falling curve with a large enough effect; inconclusive = small, poorly fitted or top-dose-only effect; inactive = no such curve, though single readings can be large or run the other way; also: potency is read from the fitted curve at half-maximal effect; the source files actives as falling curves though it sought activators and does not explain the sign; nearly all actives have a fitted effect of over 65% in size; many hits overshoot -100%
Target sequence (P80244 whole entry, looked up): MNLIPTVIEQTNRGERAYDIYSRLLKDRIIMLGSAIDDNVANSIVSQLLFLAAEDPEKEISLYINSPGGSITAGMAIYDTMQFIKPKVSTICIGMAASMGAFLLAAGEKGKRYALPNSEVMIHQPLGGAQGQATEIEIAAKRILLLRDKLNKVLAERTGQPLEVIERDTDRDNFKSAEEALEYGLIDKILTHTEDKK
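FRET quenching reversal measured ClpP activation: 10 microg/mL B. subtilis ClpP at pH 8 with the FRET-FV decapeptide, read at 430 nm after 320 nm excitation. The 20-min minus 0-min signal was scaled between DMSO/no-enzyme wells and ADEP (5.8 microM final).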
* marks the source's active call; other numbers are inactive results; ? = inconclusive; · = not tested or not shown; & = joins results of further samples; [ ] = dose if it differs, or a comment. An unsorted share of the library; 5.1% or so of the library scored in one or more.

SMILES	D2 agonist	Menin MLL FP FL	Sfp PPTase inh	PINK1 modulator	gsp antagonist	gsp ag	ClpP mod
COC(=O)c1cccc(NC(=O)C2CCCN2C(=O)c2cccs2)c1 (configuration not stated)	-2.1	·	·	0.7%	5%	11%	-20%
CCN(CC(=O)Nc1ccccc1C(F)(F)F)C(=O)c1ccc(NC(=O)c2cccs2)cc1	2.1	·	·	0.2%	·	-24%	-0.1%
Cc1ccc(Cl)cc1NC(=O)C1CCCCC1C(=O)O (configuration not stated)	4.8	1.5	-7%	1.1%	2%	9%	·
Cc1cc(/C=N/n2cnnc2)c(C)n1-c1ccc(OCc2ccccc2F)cc1	3.8	8.5	-17%	-4.0%[38.3 µM]	?	-18%	-12%
CC(C)CNC(=O)C(=O)NCCC1CCCCN1S(=O)(=O)c1cccs1 (configuration not stated)	2.4	·	·	-0.5%	7%	-9%	-2.2%
Cc1onc(-c2ccccc2)c1C(=O)Nc1ccccc1C#N	-5.1&0.5	8.2	9%	1.1%&0.1%	13%&6%	-28%&5%	-0.4%&2.3%
CCOC(=O)C1=CN(Cc2cccc(Br)c2)S(=O)(=O)NC1C (configuration not stated)	-0.5	·	·	-0.9%	1%	·	0.0%
CCOC(=O)N1CCC(NC(=O)c2cc(C(=O)Nc3cccc(C(F)(F)F)c3)ccc2CO)CC1	11	-3.6	10%	0.2%	-13%	-68%[inhibitor]	-1.0%
CCN(CC)S(=O)(=O)c1ccc2oc(C(=O)NCCCN3CCOCC3)c(C)c2c1	-1.0	0.5	-8%	·	1%	-36%[inhibitor]	2.0%
O=C(NCc1ccc(F)c(F)c1)c1cccc2c(-c3cccnc3)coc12	5.9	·	·	0.0%	·	·	-12%
COc1ccc(/C=C(\NC(=O)c2ccccc2)C(=O)NCCC(=O)O)cc1	-2.4	-0.4	11%	3.7%	12%	-1%[15.4 µM]	2.5%
Cc1ccc(CN2CCN(CC(=O)NC(C)c3ccc4c(c3)OCCO4)C2=O)cc1 (configuration not stated)	-9.0	1.9	-7%	3.4%	-3%	-24%	2.4%
Cc1nn(C)cc1CNC(=O)c1cnn2c1NC(c1ccc(Br)cc1)CC2C(F)(F)F (configuration not stated)	0.1	-3.3	-7%	·	-2%	-31%[inhibitor]	-5.5%
Cc1ccc2c(C)nc(Nc3nc(CSc4nnnn4-c4ccccc4)cc(=O)[nH]3)nc2c1	3.1	1.6	-1%	?	0%	-18%	-1.4%
O=C(CSc1nc2ccccc2c(=O)n1Cc1ccco1)Nc1cccc(O)c1	7.2	2.4	3%	7.8%	-21%	11%[15.4 µM]	·
Cc1cccc(NC(=O)COC(=O)c2ccccn2)c1	4.8	-1.6	1%	1.0%	4%	31%	·
CC(C)[C@H](NC(=O)c1ccco1)C(=O)NCc1ccccc1	-1.0	1.8	7%	2.4%	13%	-51%[inhibitor]	·
N#CC(C(=O)Nc1ccc(Cl)c(Cl)c1)=C1Nc2ccccc2N1	0.1	7.4	2%	3.1%	8%	29%	-20%
CCn1c(CC(=O)Nc2ccc(F)cc2)nnc1SCC(=O)NC1CCCC1	-2.9	1.0	6%	-0.9%	-6%	-3%	·
CCCCNC(=O)CC1N=C2c3ccccc3N=C(SCC(=O)Nc3cccc(C)c3)N2C1=O (configuration not stated)	-4.5	2.2	2%	-1.3%	-4%	0%	-8.2%
CCCCCOCC1CC(C/C(C)=N/NC(N)=S)C(=O)O1 (configuration not stated)	-2.7	5.9	45µM*	3.0%	22%	6%[15.4 µM]	0.1%
O=[N+]([O-])c1ccccc1OCCOCCOc1cccc2cccnc12	-0.4	·	?	-0.6%	15%	-38%[inhibitor]	-0.7%
COc1ccc(CS(=O)(=O)c2ncn[nH]2)cc1	-1.2	0.0	10%	1.3%	5%	14%	·
C[C@H](CO)N1C[C@H](C)[C@@H](CN(C)Cc2ccc(C(=O)O)cc2)Oc2c(NS(=O)(=O)c3cccs3)cccc2C1=O	1.0	·	·	1.3%	6%	·	0.0%
CC1CCN(N=Nc2nc3c([nH]2)c(=O)n(C)c(=O)n3C)CC1	9.4	·	·	7.8%	5%	13µM*	·
CC1CN(C(=O)/C(=C/c2ccco2)NC(=O)c2ccccc2)CC(C)O1 (configuration not stated)	-4.8	1.2	16%	-0.4%	-12%	12%[15.4 µM]	·
CCC(CO)Oc1cc(NC(=O)c2ccccc2[N+](=O)[O-])c2ncn(C(C)C)c2c1 (configuration not stated)	6.4	·	·	1.0%	-5%	-15%	1.0%
O=C(Nc1ccc(F)cc1)C(=O)c1c(O)[nH]c2ccc([N+](=O)[O-])cc12	?	1.9	?	1.8%	-6%	1%	-3.4%
Cc1ccc2c(c1)C(c1ccccc1)N(C(=O)c1ccc(S(=O)(=O)N3CCOCC3)cc1)CC(=O)N2 (configuration not stated)	-0.8	4.6	1%	3.1%	-4%	5%[15.4 µM]	1.0%
CCOC(=O)C1(Cc2ccccc2)CCN(Cc2cccc(OC)c2O)CC1	2.3	-3.1	4%	-1.2%	-22%	25%[15.4 µM]	·
O=C(COc1ccc(Cl)cc1Cl)NN=C1CCCCC1	1.3	1.1	-8%	-1.0%	2%	-3%	·
COc1ccc(NC(=O)COC(=O)CCc2nc3ccccc3c(=O)[nH]2)cc1Cl	-5.3	·	·	0.1%	4%	7%	0.1%
O=C(NNc1nc2cc3c(cc2s1)OCCO3)c1ccccc1	11	1.9	-2%	-0.6%	-9%	-30%	-0.6%
Cc1ccc(S(=O)(=O)N2CCN(C(C)C(=O)NCC(C)c3ccccc3)CC2)cc1 (configuration not stated)	-2.3	·	·	-0.6%	-4%	13%[15.4 µM]	0.5%
O=C(c1cccc(F)c1)N1C2C=CC(C2)C1(C(F)(F)F)C(F)(F)F (configuration not stated)	-1.0	3.1	3%	2.4%	-10%	0%	0.5%
O=C(Nc1cccc(Cl)c1Cl)c1ccccc1OCC(=O)N1CCOCC1	-4.1	-0.8	-3%	-1.7%	-14%	-20%	0.8%
CC(C)c1ccc(NC(=O)C2(C)Cc3c(-c4ccc(C(N)=O)cc4)ccnc3O2)cc1 (configuration not stated)	-2.4	·	·	1.5%	·	·	-1.7%
CC1(C(=O)Nc2cccc(NS(C)(=O)=O)c2)CCN1CCc1ccccc1 (configuration not stated)	-6.5	·	·	-0.2%	·	·	-1.1%
Cc1ccc(NC(=O)CCc2c(C)[nH]c(=O)c(C#N)c2C)cc1	-2.9	-16	5%	-0.4%	17%	2%[15.4 µM]	·
CCOc1cc(C(N)=O)cc(OCC)c1OCC	-0.6	-0.6	12%	-1.3%	14%	11%	-3.7%
Cc1ccc2c(c1)[C@@H]1CN(C)CC[C@@H]1N2S(=O)(=O)c1ccc([N+](=O)[O-])cc1	-1.1	4.6	-10%	-2.5%[38.3 µM]	8%	-26%	0.9%
CCOC(=O)C1CCN(CC(O)COc2ccc(C(C)(C)CC)cc2)CC1 (configuration not stated)	11	0.7	-3%	14%	13%	-42%[inhibitor]	1.2%
CCc1ccccc1NC(=O)c1ccc(S(=O)(=O)NCC2CCCO2)cc1 (configuration not stated)	4.5	-2.9	26%	-2.0%	5%	?	·
COc1ccc2ccccc2c1CN(C)Cc1ccccc1	0.5	0.6	15%	14%	4%	11%	-5.5%
COc1ccc(Cc2nnc(NCCO)[nH]c2=O)cc1	-4.2	0.3	9%	0.7%	15%	-11%	1.7%
COC(=O)Nc1ccc2c(c1)N(C(=O)CCN1CCN3CCCC3C1)c1ccccc1CC2 (configuration not stated)	-2.5&-20	3.7&7.9	9%&2%	-1.2%&-0.6%	3%&-1%	-2%	-1.2%
CCOc1ccc(C(=O)Nc2nncs2)cc1OCC	-2.0	2.2	3%	5.5%[38.3 µM]	5%	-3%	-3.6%
COc1cccc(CNC(=O)C2CSC3(C)CCC(=O)N23)c1 (configuration not stated)	-3.7	·	·	-1.4%	11%	-14%	-1.3%
COC(=O)c1ccc(Oc2ccc(S(=O)(=O)N3CCCCC3)cc2N)cc1	-0.9	5.3	2%	2.2%	-31%	-9%[15.4 µM]	-0.9%
CC1CCCCN1CCNC(=O)C1CCN(S(=O)(=O)c2cccc3cccnc23)CC1 (configuration not stated)	0.4	-8.8	9%	-0.2%	3%	1%	0.8%
CC(=O)c1cccc(S(=O)(=O)N2CCCC(c3nc4c(nnn4Cc4cccc(Cl)c4)c(=O)[nH]3)C2)c1 (configuration not stated)	-0.2	1.7	6%	4.4%	0%	-2%[15.4 µM]	·
Cc1nn(-c2ccccc2)c2c1C(O)CC(C)(C)C2 (configuration not stated)	-2.6	3.3	6%	1.2%	2%	7%	-2.8%
CCc1cc2c(=O)c(-c3nc4ccccc4n3C)c(C)oc2c(CN(CC)CC)c1O	0.9	-0.6	9%	1.3%	-17%	14%	?

Arranged by length of the SMILES (descending): some entries from above
SMILES	D2 agonist	Menin MLL FP FL	Sfp PPTase inh	PINK1 modulator	gsp antagonist	gsp ag	ClpP mod
CCc1cc2c(=O)c(-c3nc4ccccc4n3C)c(C)oc2c(CN(CC)CC)c1O	0.9	-0.6	9%	1.3%	-17%	14%	?
CC1CCCCN1CCNC(=O)C1CCN(S(=O)(=O)c2cccc3cccnc23)CC1 (configuration not stated)	0.4	-8.8	9%	-0.2%	3%	1%	0.8%
COc1cccc(CNC(=O)C2CSC3(C)CCC(=O)N23)c1 (configuration not stated)	-3.7	·	·	-1.4%	11%	-14%	-1.3%
Cc1nn(-c2ccccc2)c2c1C(O)CC(C)(C)C2 (configuration not stated)	-2.6	3.3	6%	1.2%	2%	7%	-2.8%
CCOc1ccc(C(=O)Nc2nncs2)cc1OCC	-2.0	2.2	3%	5.5%[38.3 µM]	5%	-3%	-3.6%
